Bioassay records (PubChem)
BJeLR lethal: BJeLR cell viability loss; BJeLR (HRASV12) viability, CellTiter-Glo ATP luminescence, 48 h; reference of the scale not given here; inhibition, % (test concentration not listed); 300,000 tested, 0.17% active; AID 1554;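 active = replicate mean above 50%; inconclusive = above 50% but judged a plate artefact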;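 also: 50 nL library stock added to about 25 µL; numbers are from one replicate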
Mtb hypoxia inh: Mtb hypoxia fluorescent reporter inhibition | M. tuberculosis hypoxia-regulated fluorescent reporter, fluorescence | fluorescence inhibition, % (concentration not given with the values) | 300,000 tested, 0.1% active | AID 1159583;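 active = 35 to 45% if threefold the growth effect, above 45% if 1.5-fold the growth effect; inactive = the rest, general growth blockers included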;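 also: wells of about 50 µL received 100 nL stock; 0% = vehicle wells and 100% = reference inhibitor wells; whole bacteria with a GFP reporter of the hypoxia response; strong numbers were not always called active; many hits fall short of the cut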
PrP 5UTR inh: suppresses PrP 5' UTR mRNA reporter expression; inhibition, % (no concentration beside the values); 340,000 tested, 0.35% active; AID 488862; cell-based PrP 5' UTR mRNA reporter, plate reader;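 active = every replicate at 50% or more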;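 also: 0 = median of the neutral control wells; tested in H4 reporter cells; numbers are from one replicate; inactives centre near -14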
RN4220 kill: S. aureus RN4220 growth inhibition; OD600, 16 h; inhibition, % (concentration not given with the values); 330,000 tested, 0.33% active;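 active = z-score of -3 or lower and OD600 up to 0.18 on both plates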;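 also: plate controls were untreated cells for no effect and reference antibiotic for full effect; stock transfer was 100 nL into about 80 µL; one replicate is shown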
Autofluor counter: compound fluorescence in toxin protease inhibitor counterscreen. compound autofluorescence counterscreen, microsphere flow cytometry; hits give high values. 360,000 tested, 3.1% active. fluorescence intensity (no concentration beside the values);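 active = at least 3 SD above the mean of all compounds, about 16000 in these data; inconclusive = too few beads counted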;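 also: 100 nL of 1 mM stock went into each well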
ugtP null kill: compounds lethal to S. aureus RN4220 ugtP deletion mutant | OD600 growth, 16 h; some inactives read as strong as hits | 330,000 tested, 0.54% active | growth inhibition, % (no concentration beside the values);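 active = z-score under -3 and OD600 up to 0.15 on both plates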;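 also: plate controls were untreated wells for no effect and antibiotic for full effect; wells of about 80 µL received 100 nL stock; the first replicate is given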
Mtb hypoxia inh growth: further read-out of Mtb hypoxia inh, marked with its call; growth inhibition, %; measured here: M. tuberculosis growth (absorbance);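 0% = vehicle and 100% = reference antibiotic; read after six days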
An asterisk follows results filed as active.

Results for CCOCCCn1c(SCC(=O)N(C)C2CCS(=O)(=O)C2)nc2ccccc2c1=O (centres undefined) ?
BJeLR lethal: -9.1; Mtb hypoxia inh: 1.2; PrP 5UTR inh: -19.0; RN4220 kill: 1.4; Autofluor counter: 5390; ugtP null kill: 5.9; Mtb hypoxia inh growth: 7.9

What do the screens show for `CC12CCC(=O)N1C(C(=O)Nc1nccs1)CS2` (centres undefined)?
Mtb hypoxia inh: 2.9; PrP 5UTR inh: -5.6; RN4220 kill: -0.1; Autofluor counter: inconclusive; ugtP null kill: 2.1; Mtb hypoxia inh growth: 10.3

What do the screens show for `COC(=O)c1ccccc1NC(=O)C1CC(=O)N(c2ccc(OC)cc2)C1` (centres undefined)?
BJeLR lethal: 9.1; Mtb hypoxia inh: 10.5; PrP 5UTR inh: -33.5; RN4220 kill: 15.3; Autofluor counter: 3988; ugtP null kill: -71.2; Mtb hypoxia inh growth: 8.5

How did COc1ccc(NC(=O)c2c(C)nn(Cc3ccccc3)c2Cl)cc1S(=O)(=O)N1CCOCC1 do in these assays?
BJeLR lethal: -0.2; Mtb hypoxia inh: 18.0; PrP 5UTR inh: -23.5; RN4220 kill: 2.2; Autofluor counter: 3333; ugtP null kill: -0.3; Mtb hypoxia inh growth: 11.6

How did Cc1ccc(SCC(=O)N2CCN(S(=O)(=O)c3cccs3)CC2)cc1 do in these assays?
Mtb hypoxia inh: -4.8; PrP 5UTR inh: 0.6; RN4220 kill: 5.5; Autofluor counter: 3831; ugtP null kill: 3.6; Mtb hypoxia inh growth: 6.6

Results for S=C(NC1CC1)N1CCN(C(=S)NC2CC2)CC1 ?
BJeLR lethal: -6.9; Mtb hypoxia inh: 6.6; PrP 5UTR inh: -16.3; RN4220 kill: 3.3; Autofluor counter: 5458; ugtP null kill: 2.9; Mtb hypoxia inh growth: 6.8

Results for CCc1c(C(=O)Nc2cc(C)ccc2OC)[nH]c(C)c1C(C)=O ?
BJeLR lethal: -1.0; Mtb hypoxia inh: 4.6; PrP 5UTR inh: -8.5; RN4220 kill: 3.5; Autofluor counter: 5665; ugtP null kill: -5.2; Mtb hypoxia inh growth: 8.6

What do the screens show for `O=C(Cc1ccccc1)N/N=C/c1cc(Br)cs1`?
BJeLR lethal: -4.9; PrP 5UTR inh: -28.1; Autofluor counter: 3737

How did O=C(NCCN1C(=O)S/C(=C\c2ccc(Cl)cc2)C1=O)C1=COCCO1 do in these assays?
Mtb hypoxia inh: -3.8; PrP 5UTR inh: -22.8; RN4220 kill: -1.4; Autofluor counter: 3555; ugtP null kill: 0.1; Mtb hypoxia inh growth: 1.1

Results for COc1cc(NC(=O)c2cc3c(C)nc4ccccc4c3o2)cc(OC)c1OC ?
BJeLR lethal: 8.4; Mtb hypoxia inh: 12.8; PrP 5UTR inh: -1.5; RN4220 kill: 3.4; Autofluor counter: 4328; ugtP null kill: -13.1; Mtb hypoxia inh growth: 34.7

What do the screens show for `COc1ccc(NC(=O)NC2CCCc3ccccc32)cc1` (centres undefined)?
BJeLR lethal: 5.6; Mtb hypoxia inh: -13.4; PrP 5UTR inh: -22.5; RN4220 kill: -0.6; Autofluor counter: 5661; ugtP null kill: 2.1; Mtb hypoxia inh growth: -11.7

How did CCOc1ccc(N2C(=O)c3cccnc3C2Nc2ccc(F)cc2)cc1 (centres undefined) do in these assays?
BJeLR lethal: 4.1; Mtb hypoxia inh: -0.6; PrP 5UTR inh: -10.6; RN4220 kill: -1.5; Autofluor counter: 9943; ugtP null kill: -2.8; Mtb hypoxia inh growth: -11.8

What do the screens show for `O=C(CSc1nnc(CNc2ccc(F)cc2)n1Cc1ccco1)NC1CC1`?
BJeLR lethal: 6.5; Mtb hypoxia inh: -4.0; PrP 5UTR inh: 17.6; RN4220 kill: -6.5; Autofluor counter: 4966; ugtP null kill: -0.8; Mtb hypoxia inh growth: 12.2

Results for COc1ccc(CNC(=O)CN(Cc2ccc(OC)cc2)C(=O)CCC(=O)Nc2nccs2)cc1 ?
BJeLR lethal: -6.5; Mtb hypoxia inh: -5.6; PrP 5UTR inh: 5.1; RN4220 kill: 0.4; Autofluor counter: 5505; ugtP null kill: 3.6; Mtb hypoxia inh growth: 1.1

Results for NS(=O)(=O)c1ccc(Nc2nc(-c3ccc(O)cc3O)cs2)cc1 ?
BJeLR lethal: -9.4; Mtb hypoxia inh: 7.8; PrP 5UTR inh: -15.0; RN4220 kill: 3.9; Autofluor counter: 11001; ugtP null kill: 1.3; Mtb hypoxia inh growth: 8.3

How did CCOC(=O)C1=C(N)N2C(=O)C(C)SC2=C(C(=O)OCC)C1c1ccc(O)cc1 (centres undefined) do in these assays?
BJeLR lethal: 2.7; Mtb hypoxia inh: -1.3; PrP 5UTR inh: -18.2; RN4220 kill: 3.3; Autofluor counter: 3631; ugtP null kill: 1.5; Mtb hypoxia inh growth: 9.2

Results for CCOC(=O)Cn1c(=O)c2c(nc3n2CC(C)CN3Cc2ccccc2)n(C)c1=O (centres undefined) ?
BJeLR lethal: -14.2; Mtb hypoxia inh: 4.4; PrP 5UTR inh: -15.3; RN4220 kill: 4.1; Autofluor counter: 4189; ugtP null kill: 13.7; Mtb hypoxia inh growth: 2.9

Results for Cc1nnc(C)c2c(C)n(-c3ccccc3N)c(C)c12 ?
BJeLR lethal: -0.5; Mtb hypoxia inh: 9.6; PrP 5UTR inh: -6.7; RN4220 kill: 3.8; Autofluor counter: 4331; ugtP null kill: -0.8; Mtb hypoxia inh growth: 14.7

What do the screens show for `CCOC(=O)c1nc(C)n(-c2cc(Cl)cc(Cl)c2)n1`?
BJeLR lethal: -6.4; Mtb hypoxia inh: 7.1; PrP 5UTR inh: -30.5; RN4220 kill: 1.5; Autofluor counter: 17779*; ugtP null kill: -1.8; Mtb hypoxia inh growth: 1.2

How did O=C(Nc1ccc(-c2cscn2)cc1)C1CCCN(Cc2ccc(CO)o2)C1 (centres undefined) do in these assays?
BJeLR lethal: -2.5; Mtb hypoxia inh: 7.8; PrP 5UTR inh: -8.6; RN4220 kill: 6.4; Autofluor counter: 4349; ugtP null kill: 4.5; Mtb hypoxia inh growth: -10.8

What do the screens show for `O=C(NCC(=O)N1CCN(c2cccc(Cl)c2)CC1)c1ccc(Br)o1`?
BJeLR lethal: 1.9; Mtb hypoxia inh: -0.2; PrP 5UTR inh: 5.6; RN4220 kill: -4.0; Autofluor counter: 6206; ugtP null kill: 5.8; Mtb hypoxia inh growth: 11.8

What do the screens show for `Cc1ccc(NC(=O)CC2SC(=NN=Cc3ccco3)NC2=O)cc1Cl` (centres undefined)?
Mtb hypoxia inh: 1.8; RN4220 kill: 10.5; ugtP null kill: -10.4; Mtb hypoxia inh growth: 0.7

Results for COC(=O)c1ccc(CSc2nc3cc(Cl)ccc3o2)cc1 ?
BJeLR lethal: -5.8; Mtb hypoxia inh: 15.7; PrP 5UTR inh: -18.6; RN4220 kill: 19.3; Autofluor counter: 22309*; ugtP null kill: 39.6; Mtb hypoxia inh growth: 19.4

Results for Cn1c(=O)c2c(nc(NCC3CCCC(CN)C3)n2Cc2ccc(Cl)cc2Cl)n(C)c1=O (centres undefined) ?
BJeLR lethal: 2.9; Mtb hypoxia inh: -1.8; PrP 5UTR inh: -24.6; RN4220 kill: 0.1; Autofluor counter: 3431; ugtP null kill: -2.9; Mtb hypoxia inh growth: 6.1

What do the screens show for `CC[C@@]12C(=O)N(c3cccc(Br)c3)C(=O)N1C(c1ccc(OC)cc1)C1C(=O)N(C(C)(C)C)C(=O)C12` (some centres undefined)?
Mtb hypoxia inh: -5.5; RN4220 kill: 10.2; ugtP null kill: -0.1; Mtb hypoxia inh growth: 5.4

Results for CCc1nnc(N/N=C/c2cc(C)c(C)cc2C)n1N ?
BJeLR lethal: -2.9; PrP 5UTR inh: -4.3; Autofluor counter: 4027

How did NS(=O)(=O)c1ccc(CNC(=O)c2cc(=O)[nH]c3ccccc23)cc1 do in these assays?
BJeLR lethal: -1.1; Mtb hypoxia inh: 16.4; PrP 5UTR inh: -21.4; RN4220 kill: 5.8; Autofluor counter: 3860; ugtP null kill: 8.2; Mtb hypoxia inh growth: 4.1

What do the screens show for `Cc1ccc(-n2c(SCC(=O)NCCN3C(=O)CSC3=O)nnc2-c2ccccc2)cc1C`?
BJeLR lethal: 11.6; Mtb hypoxia inh: -4.8; PrP 5UTR inh: -18.5; RN4220 kill: 1.3; Autofluor counter: 2523; ugtP null kill: -4.7; Mtb hypoxia inh growth: 2.7

What do the screens show for `Cc1cc(NC(=O)Cn2ccc([N+](=O)[O-])n2)no1`?
BJeLR lethal: -4.1; Mtb hypoxia inh: 4.5; PrP 5UTR inh: -34.6; RN4220 kill: 1.6; Autofluor counter: 4431; ugtP null kill: 10.5; Mtb hypoxia inh growth: -2.2

How did CC(=O)NS(=O)(=O)c1ccc(NC(=O)c2ccc(-n3nc(C)cc3C)cc2)cc1 do in these assays?
BJeLR lethal: 4.4; Mtb hypoxia inh: 1.4; PrP 5UTR inh: -18.1; RN4220 kill: 0.0; Autofluor counter: 2916; ugtP null kill: 4.9; Mtb hypoxia inh growth: 4.6

Results for CCOC(=O)N1CCN(C(=O)Nc2ccccc2Cl)CC1 ?
BJeLR lethal: 2.3; Mtb hypoxia inh: -7.3; PrP 5UTR inh: -18.7; RN4220 kill: -2.3; Autofluor counter: 11941; ugtP null kill: -5.3; Mtb hypoxia inh growth: 1.5

What do the screens show for `CC1CCCN(CCCNC(=O)c2ccc3c(c2)N(Cc2ccc(F)cc2)C(=O)c2ccccc2S3=O)C1` (centres undefined)?
BJeLR lethal: 3.2; Mtb hypoxia inh: -1.7; PrP 5UTR inh: -9.6; RN4220 kill: -5.7; Autofluor counter: 4872; ugtP null kill: -2.3; Mtb hypoxia inh growth: 0.6

Results for Cc1cc(C)c(C(=O)NC2CCCc3c2cnn3-c2cccc(C)c2C)o1 (centres undefined) ?
BJeLR lethal: 12.4; Mtb hypoxia inh: -0.4; PrP 5UTR inh: -23.9; RN4220 kill: 1.6; Autofluor counter: 4359; ugtP null kill: 8.4; Mtb hypoxia inh growth: -3.9

Results for COc1ccc(C(=O)NC(=S)NNC(=O)c2cccnc2)cc1 ?
BJeLR lethal: 7.7; Mtb hypoxia inh: 4.1; PrP 5UTR inh: -9.9; RN4220 kill: 15.4; Autofluor counter: 6035; ugtP null kill: 3.9; Mtb hypoxia inh growth: 18.1

Results for Cc1ccc(/C=C/C(=O)N2CCC(Cc3ccccc3)CC2)cc1 ?
BJeLR lethal: 9.9; Mtb hypoxia inh: 3.0; PrP 5UTR inh: -14.4; RN4220 kill: 2.5; Autofluor counter: 2060; ugtP null kill: -5.4; Mtb hypoxia inh growth: 5.6

Results for CCc1ccc(CN(C(=O)c2cc3ccccc3oc2=O)C2CCS(=O)(=O)C2)cc1 (centres undefined) ?
BJeLR lethal: -6.9; Mtb hypoxia inh: 3.3; PrP 5UTR inh: -61.7; RN4220 kill: 2.5; Autofluor counter: 8689; ugtP null kill: 2.1; Mtb hypoxia inh growth: 1.9

How did CCCCNC(=S)N1CCN(C)CC1 do in these assays?
BJeLR lethal: -4.8; Mtb hypoxia inh: 9.8; PrP 5UTR inh: -19.2; RN4220 kill: 7.7; Autofluor counter: 2558; ugtP null kill: 8.9; Mtb hypoxia inh growth: 3.0

Results for O=C(O)c1cccc(NC(=S)N/N=C/c2cccc(O)c2)c1 ?
BJeLR lethal: -3.2; PrP 5UTR inh: 5.0; Autofluor counter: 2685

An excerpt from above in order of SMILES length, highest first.
Results for CCc1ccc(CN(C(=O)c2cc3ccccc3oc2=O)C2CCS(=O)(=O)C2)cc1 (centres undefined) ?
BJeLR lethal: -6.9; Mtb hypoxia inh: 3.3; PrP 5UTR inh: -61.7; RN4220 kill: 2.5; Autofluor counter: 8689; ugtP null kill: 2.1; Mtb hypoxia inh growth: 1.9

Results for Cc1cc(C)c(C(=O)NC2CCCc3c2cnn3-c2cccc(C)c2C)o1 (centres undefined) ?
BJeLR lethal: 12.4; Mtb hypoxia inh: -0.4; PrP 5UTR inh: -23.9; RN4220 kill: 1.6; Autofluor counter: 4359; ugtP null kill: 8.4; Mtb hypoxia inh growth: -3.9

Results for CCOC(=O)N1CCN(C(=O)Nc2ccccc2Cl)CC1 ?
BJeLR lethal: 2.3; Mtb hypoxia inh: -7.3; PrP 5UTR inh: -18.7; RN4220 kill: -2.3; Autofluor counter: 11941; ugtP null kill: -5.3; Mtb hypoxia inh growth: 1.5

Results for CCc1nnc(N/N=C/c2cc(C)c(C)cc2C)n1N ?
BJeLR lethal: -2.9; PrP 5UTR inh: -4.3; Autofluor counter: 4027
